# NPYLR7 ag – agonists of mosquito NPYLR7 receptor, primary screen, cell-based, Aedes aegypti, calcium fluorescence, mosquito biting behavior; AID 1259423, 2018; activation, % at 10 µM; HEK293T NPYLR7/Galpha15, GCaMP6s calcium fluorescence; 270,000 compounds, 0.15% hits; in the data active = activation above about 40%;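 note: 0% = vehicle and 100% = reference agonist at the receptor; some compounds past the cut are filed as inactive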
# NPYLR7 ag max-min – recorded beside NPYLR7 ag, whose call it bears; activation, %; measured here: Max-Min RFU normalised activation; some inactives read as strong as hits;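 span of the calcium signal over five minutes; 0% = vehicle and 100% = native peptide agonist; compound fluorescence can raise it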
# * = called active by the depositor; & = joins results of further samples. Not all compounds are listed; the hit share may differ from the screen's.
SMILES,NPYLR7 ag,NPYLR7 ag max-min
COCCn1c(C)cc(O)c(C(c2ccc(OC)c(OC)c2)N2CCN(c3ccccc3)CC2)c1=O (stereo unspecified),0,0
Brc1ccccc1CNc1cccnc1N1CCCC1,15,13
Cc1cc(=O)oc(C)c1C(=O)N1CCC(c2ccncc2)CC1,-1,-8
Cc1cccc(-n2cc(CN(C)C(=O)c3ccnn3C)cn2)c1,-4,-7
Cc1cc(OCC2CN(C(=O)COCc3ccccc3)CCO2)ccc1Cl (stereo unspecified),-5,-9
O=c1oc2ccccc2cc1-c1csc(NCc2ccccc2)n1,-1,-4
Cc1ccc(S(=O)(=O)N2CCOC(CN3Cc4ccccc4-c4ccccc43)C2)cc1 (stereo unspecified),6,7
CC(=O)Cc1nc(=S)nc(-c2ccc(F)cc2)[nH]1,9,4
CC1CC(C(F)F)n2nc(C(=O)O)nc2N1 (stereo unspecified),14,6
CCCCC(CC)C(=O)N1CCN(c2nc3nccc(C(C)(C)C)n3n2)CC1 (stereo unspecified),5,3
CCCCCc1ccc(C(=O)N2CCN(c3nc4nccc(-c5ccc(N6CCOCC6)cc5)n4n3)CC2)cc1,5,-1
Cc1ccc(CN2CCCN(c3nc(-c4ccccc4)no3)CC2)cc1,1,0

# The closing 5 records of the part before lead into the next:
SMILES,NPYLR7 ag,NPYLR7 ag max-min
CC(=O)Cc1nc(=S)nc(-c2ccc(F)cc2)[nH]1,9,4
CC1CC(C(F)F)n2nc(C(=O)O)nc2N1 (stereo unspecified),14,6
CCCCC(CC)C(=O)N1CCN(c2nc3nccc(C(C)(C)C)n3n2)CC1 (stereo unspecified),5,3
CCCCCc1ccc(C(=O)N2CCN(c3nc4nccc(-c5ccc(N6CCOCC6)cc5)n4n3)CC2)cc1,5,-1
Cc1ccc(CN2CCCN(c3nc(-c4ccccc4)no3)CC2)cc1,1,0
O=c1c2cc(Cl)cc(Cl)c2ncn1Cc1nccn1CC(F)(F)F,2,4
COCCCNC(=O)CN1CN(c2ccccc2)C2(CCN(C(=O)Nc3ccccc3OC)CC2)C1=O,18,21
Cc1cn2c3c(=O)n(CCN4CCOCC4)c(=O)n(C)c3nc2n1C1CCCCC1,5,-1
CN(C(=O)c1cc(N2C[C@H]3CC=CC[C@H]3C2)ccn1)C1CCCCC1,18,15
Cc1ccc(C)c(S(=O)(=O)NC2CCS(=O)(=O)C2)c1 (stereo unspecified),0,38
CC(=O)c1cccc(NC(=O)c2cnn3c(C(F)(F)F)cc(-c4ccco4)nc23)c1,-5,-8
Cc1c[nH]c(=O)n1-c1ccc(C(=O)Nc2cc(Cl)c(N)c(Cl)c2)cc1,8,3
CS(=O)(=O)c1ccc(NC(=O)c2ccc(OC(F)F)cc2)cc1,4,3
CCOc1ccc(C2C(=C(O)c3ccc(Cl)cc3)C(=O)C(=O)N2CCCN(C)C)cc1 (stereo unspecified),2,1
Oc1c(/C=N\Nc2nc(-c3ccccc3)c3cc(Cl)ccc3n2)ccc2ccccc12,-5,-9
Cc1ccc(CN(CCc2ccccc2)C(=O)CNC(C)C)o1,1,-1
N#Cc1ccc(COC(CN2CCN(C(=O)c3ccncc3)CC2)c2cccc(N3CCCC3)c2)cc1 (stereo unspecified),-2,9
CCn1c(-c2cc(Cl)ccc2O)nc2cc(S(=O)(=O)N(C)C)ccc21,1,0
Cc1ccc(C(C)NC(=O)N2CCN(Cc3ccon3)CC2)cc1F (stereo unspecified),3,5
CCC(C)(C)NC(=O)CNc1cc(Cl)cc(Br)c1OC,3,2
CCC(CO)N(Cc1cccnc1)Cc1nccn1C (stereo unspecified),-5,-8
Cc1scc(CN2CCN(C3CCCCC3)CC2)c1C,-1,-1
CCCCN1CCN(C(=O)c2cn(CCCOC)cc3c(=O)n(-c4ccccc4)nc2-3)CC1,-2,-6
Cn1nnc2c(Nc3ccc(OC(F)F)cc3)ncnc21,11,4
CCCCCCCCC(=O)N1CCC2(CC1)SCCN2C(=O)c1ccc(Cl)cc1Cl,-7,2
CC(COc1ccccc1)NCCn1ncc2ccccc2c1=O (stereo unspecified),-4,-4
CCOc1ccc(-c2cnc(C3CCOC3)[nH]2)cc1 (stereo unspecified),5,3
O=C(C1c2ccccc2Oc2ccccc21)n1cccn1,-1,-4
CCc1nc2ccc(C(=O)N3CCCCC3)cn2c1N(C)Cc1ccc(OC)cc1,-5,-10
O=C(c1cccc(F)c1)N1CCN(c2nccc(-c3ccc4c(c3)OCO4)n2)CC1,-1,-3
Cn1c(=O)c2c(nc3n2CC(c2ccccc2)=NN3Cc2ccc(Cl)cc2)n(C)c1=O,10,16
CCCCn1c(O)c(C=Nc2ccc(CC)cc2)c(C)c(C#N)c1=O,4,4
COc1ccc(-c2nc(-c3ccncc3)no2)cc1OC,-1&-7,-3&-11
CCC1CN(CCCC(F)(F)F)CCC(=O)N1Cc1ccccc1 (stereo unspecified),1,2
COc1ccc(NC(=O)N2CCN(C(C(=O)NCCCN3CCCC3=O)C3CCCC3)CC2)cc1 (stereo unspecified),-4,0
Oc1cccc(CN(CC2CC2)c2ncnc3cccc(F)c23)c1,1,1
CCOc1cc(CN2CCC3(CC2)C(=O)N(C(C)C)C(=O)N3CCC(C)C)ccc1OC,10,0
CC(=O)Nc1ccc(NC(=O)Nc2c[nH]c3ccccc23)cc1,-10,-11
CCOC(=O)C1=C(C)N(c2ccc(Cl)cc2)C(=O)NC1c1cc(OC)c(OC)c(OC)c1 (stereo unspecified),0,-1
Cc1cc(Cl)ccc1C(=O)C1CCCN(C(=O)CCc2ccc3c(c2)OCO3)C1 (stereo unspecified),3,2
CC(C)(C)C1CCC(=NNc2nc3ccccc3[nH]2)CC1 (stereo unspecified),2,0
CC(C)(C)c1cc(Br)ccc1OCC(=O)O,4,3
COCCN(Cc1c(-c2ccccc2)noc1N1CCCC1)C(C)=O,1,4
CCCCOc1ccc(/C=C2\N=C(c3ccc(F)cc3)OC2=O)cc1,-21,-22
O=C(Nc1ccc(COC2CCCC2)cc1)N1CC[C@H](O)C1,6,0
CC(C)(C)CC(C)(C)N1CC(C(N)=O)CC1=O (stereo unspecified),-1,-4
O=C(C(Cl)=CNc1nccs1)C(F)(F)F,-7,-14
COC(=O)c1ccc(-c2noc(CN3CCCCC3c3nc4ccc(F)cc4[nH]3)n2)cc1 (stereo unspecified),15,2
CN1C(=S)N(C(c2ccccc2)c2ccccc2)C(=O)/C1=C\c1ccncc1,4,1
Cn1nccc1C(=O)N1CCCC(C(=O)c2ccc(-c3ccccc3)cc2)C1 (stereo unspecified),12,8
Cc1nc(C(C)NC(=O)Cc2[nH]nc3ccccc23)n[nH]1 (stereo unspecified),21,13
CC(C)CN1C(=O)N(CCCc2cccnc2)C(=O)C12CCN(C1Cc3ccccc3C1)CC2,17,0
CC1(C(=O)NCCCN2CCCC2=O)CCN1CCc1ccccc1 (stereo unspecified),-2,-2
COC(=O)C(=CC(=CN(C)C)C=C(C(=O)OC)C(=O)OC)C(=O)OC,-11,-20
O=C(CNC(=O)c1ccccc1F)NCCc1ccc(Cl)cc1Cl,-10,-12
O=C1C(N2CCC(Nc3ccccc3)CC2)CCN1c1ccccc1F (stereo unspecified),-5,-4
C=CCn1cc(C(=O)Nc2ccc(OC)c(OC)c2)c2nn(-c3ccccc3)c(=O)c-2c1,15,15
O=C(NC(=S)NCC1CCCO1)c1ccco1 (stereo unspecified),10,4
COC(=O)CN1C(=O)/C(=C\c2ccc([N+](=O)[O-])cc2)SC1=S,-4,-7
COc1ccc(CCNC(=O)CC2CSc3nc4c(c(=O)n32)CCCC4)cc1OC (stereo unspecified),-3,-6
CC(C)CN(CC(=O)N1CCc2sccc2C1c1ccc(Cl)cc1)S(=O)(=O)c1cccc(C(F)(F)F)c1 (stereo unspecified),22,19
Cc1ccnc(SCCn2c(N(C)Cc3ccccc3)nc3c2c(=O)n(C)c(=O)n3C)n1,7,5
C[C@@H]1CN(C(=O)c2cccnc2Nc2cccc(C(F)(F)F)c2)C[C@H](C)O1,3,-1
CC(C(=O)N1CCOC(CO)C1)n1nnc(-c2ccccc2)n1 (stereo unspecified),-1,-3
O=C(CCc1nnc(-c2ccccc2)o1)Nc1cccc(Br)c1,5,5

# Shown as tab-separated lines: 2 of the compounds above
molecule	NPYLR7 ag	NPYLR7 ag max-min
CC(C)CN(CC(=O)N1CCc2sccc2C1c1ccc(Cl)cc1)S(=O)(=O)c1cccc(C(F)(F)F)c1 (stereo unspecified)	22	19
Cc1ccnc(SCCn2c(N(C)Cc3ccccc3)nc3c2c(=O)n(C)c(=O)n3C)n1	7	5

# The listing continues:
SMILES,NPYLR7 ag,NPYLR7 ag max-min
O=c1[nH]nc(C2CC2)n1Cc1ccc(Cl)cc1Cl,21,21
COc1ccc(/C=C2\C(=O)N(c3cccc(Cl)c3)N=C2C)cc1Br,-12,-5
COc1cccc(C2C3=C(CC(c4ccccc4)CC3=O)N=C(C)C2C#N)c1OC (stereo unspecified),-4,-8
Cn1c(=O)[nH]c2nnc(-c3ccncc3)nc2c1=O,-11,-17
CNCC[C@H](Oc1cccc2ccccc12)c1cccs1,-12&-2,-16&-7
CN(Cc1nc(-c2ccc3c(c2)OCO3)no1)CC1(N2CCCCC2)CCCCC1,17,12
COC(=O)CN1CCN(Cc2nc(-c3sccc3C)oc2C)CC1=O,17,5
O=C(Nc1ccccc1C(=O)N1CCCCCC1)c1cnc2ccccn12,2,1
CSc1nnc(Cn2c(=O)sc3ccccc32)n1CCc1ccccc1,7,6
O=C1NC(=S)NC(=O)C1=Cc1ccc(-c2ccc(Cl)c([N+](=O)[O-])c2)o1,-2,-7
COCCNc1nc(-c2ccc(C)cc2)nc2ccccc12,8,8
Oc1ccc(C=NN=C(c2ccccc2)c2ccccc2)cc1,-1,-3

# Shown with two lines to a compound: entries from further up
# Screens in order: NPYLR7 ag | NPYLR7 ag max-min
CN(Cc1nc(-c2ccc3c(c2)OCO3)no1)CC1(N2CCCCC2)CCCCC1
    17 | 12
COC(=O)CN1CCN(Cc2nc(-c3sccc3C)oc2C)CC1=O
    17 | 5
O=C(Nc1ccccc1C(=O)N1CCCCCC1)c1cnc2ccccn12
    2 | 1
CSc1nnc(Cn2c(=O)sc3ccccc32)n1CCc1ccccc1
    7 | 6

# Other entries:
SMILES,NPYLR7 ag,NPYLR7 ag max-min
COCC1(C(=O)N2CCC(c3cc(OC)ccc3OC)C2)CCC1 (stereo unspecified),-1,-2
O=C(NC(C(=O)N1CCCCC1)C1CCN(C(=O)Cc2ccccc2)CC1)c1cccs1 (stereo unspecified),-2,-1
O=C(NCc1ccc(F)cc1)N1CCCC(c2nnc(Cc3ccc(F)cc3)o2)C1 (stereo unspecified),-4,3
CNC(=O)[C@@]1(OCc2cccc(C)c2)CC(OCc2ccc(C(F)(F)F)cc2)[C@@H]2OC(C)(C)O[C@@H]2C1 (stereo partly specified),1,-5
CCn1c(C)ccc(C(=O)N(CCN2CCCCCC2)C(C)C)c1=O,0,-4

# Compound activity: PubChem, Fisher Drug Discovery Resource Center
